NPYLR7 agonist = activates Aedes aegypti NPYLR7 receptor; activation, % at 10 µM; 0.15% of 270,000 active; HEK293T NPYLR7/Galpha15, GCaMP6s calcium fluorescence; in the data active = activation above about 40%;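 note: 0% = vehicle and 100% = reference agonist at the receptor; some compounds past the cut are filed as inactive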
NPYLR7 agonist max-min = also measured in NPYLR7 agonist; calls as there; activation, %; measured here: Max-Min RFU normalised activation; some inactives read as strong as hits;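 span of the calcium signal over five minutes; 0% = vehicle and 100% = native peptide agonist; compound fluorescence can raise it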
An asterisk follows results filed as active; & = joins results of further samples. These rows are one share of the data, so the mix of outcomes need not match the whole.

SMILES	NPYLR7 agonist	NPYLR7 agonist max-min
CC1CCN(Cc2nc3c(c(=O)n(C)c(=O)n3C)n2CCN2CCOCC2)CC1	4	6
CCCc1nc(N2CCCN(S(=O)(=O)c3ccc(OC)cc3)CC2)c2c(-c3cccc(C(F)(F)F)c3)noc2n1	2	-3
C=CCn1c(SCc2ccc(C(=O)N3CCN(c4ccccc4F)CC3)cc2)nnc1-c1ccco1	0	2
O=C1/C(=C/c2cc3cc(Br)ccc3o2)Oc2c1ccc(O)c2CN1CCOCC1	28	17
Cc1c(C)c(C(=O)NCc2cccc(C(F)(F)F)c2)n(Cc2ccccc2F)c1C	26	23
O=C(CN1CN(c2ccccc2)C2(CCN(C(=O)c3ccc([N+](=O)[O-])cc3Cl)CC2)C1=O)NCC1CCCO1 (configuration not stated)	10	12
CC(C)Cn1c(CN2CCOCC2)nc2c1c(=O)[nH]c(=O)n2C	-8	-8
COc1ccccc1NC(=O)CSc1nc(=O)n(CCN2CCOCC2)c2c1CCC2	0	-3
NC(=O)CN1C2CCC(O)(CC2)C1CN1CCOCC1 (configuration not stated)	16	26
CCCC(C)c1nnc(NC(=O)c2ccc(NC(C)=O)cc2Cl)s1 (configuration not stated)	18	6
CCN(Cc1cccc(C(N)=O)c1)c1ccccc1C	-16	-16
COc1ccc(-c2nc3ccc(C)cn3c2NC(=O)Cc2ccc(F)cc2)cc1	-5	-2
CC(O)CN1CCN(C(=O)c2cc(Cl)c(Cl)n2C)CC1 (configuration not stated)	5	-1
Cc1nccc(-c2cccc(NC(=O)c3ccccc3C3CCNC3)c2)n1 (configuration not stated)	1	-4
COc1ccc(CCNC(=O)c2ccc(Cl)cc2NS(=O)(=O)c2ccc(C)cc2OC)cc1	28	29
CCNS(=O)(=O)c1c(C)cc(C)c(N(C)S(=O)(=O)c2ccccc2)c1C	6	7
COc1cccc(CC2(CO)CCCN(c3nc(C)ncc3C)C2)c1 (configuration not stated)	2	-3
CC(C)(C)c1ccc(COc2coc(CN3CCCN(C(=O)C45CC[C@@](C)(C(=O)O4)C5(C)C)CC3)cc2=O)cc1	35	17
O=C1COCc2cc(-c3cccnc3)ccc2N1CC1CC1	-2	-3
Cc1cccc(C2c3cccn3-c3ccccc3N2C(=O)CN(C(=O)Nc2ccc(C)c(C)c2)C2CC2)c1 (configuration not stated)	5	6
O=C(COC(=O)C=Cc1ccc(I)o1)CN1CCN(C(=O)c2ccco2)CC1	3	2
Cc1ccc(-c2nn(C)c(=O)c3c2CCCC3)cc1S(=O)(=O)NC(C)c1ccccc1 (configuration not stated)	-3	38
COc1cc(CNC(=O)Nc2nc(C(N)C3CCCCC3)cs2)cc(OC)c1OC (configuration not stated)	-3	-7
O=C(N=Nc1c(O)[nH]c2ccccc12)c1cccc(Cl)c1	4	0
COc1ccccc1NC(=O)N(Cc1ccccc1F)CC1CC(c2ccc(Cl)cc2)=NO1 (configuration not stated)	26	24

Reprinted from the part before: 7 compounds, followed by the next part.
SMILES	NPYLR7 agonist	NPYLR7 agonist max-min
O=C1COCc2cc(-c3cccnc3)ccc2N1CC1CC1	-2	-3
Cc1cccc(C2c3cccn3-c3ccccc3N2C(=O)CN(C(=O)Nc2ccc(C)c(C)c2)C2CC2)c1 (configuration not stated)	5	6
O=C(COC(=O)C=Cc1ccc(I)o1)CN1CCN(C(=O)c2ccco2)CC1	3	2
Cc1ccc(-c2nn(C)c(=O)c3c2CCCC3)cc1S(=O)(=O)NC(C)c1ccccc1 (configuration not stated)	-3	38
COc1cc(CNC(=O)Nc2nc(C(N)C3CCCCC3)cs2)cc(OC)c1OC (configuration not stated)	-3	-7
O=C(N=Nc1c(O)[nH]c2ccccc12)c1cccc(Cl)c1	4	0
COc1ccccc1NC(=O)N(Cc1ccccc1F)CC1CC(c2ccc(Cl)cc2)=NO1 (configuration not stated)	26	24
COc1ccccc1CC(=O)N1CCOC(COCc2cccc(C)c2)C1 (configuration not stated)	1	-4
Cc1ccc(Cn2nnc(C(=O)Nc3ccc(C)cc3)c2N)cc1	0	5
CCCOc1cccn2c(N(C)C(=O)C(C)C)c(CC)nc12	3	6
COc1cc(Nc2ccc(NC(=O)Nc3ccccc3)cc2)nc(C)n1	10	-1
COc1ccc(S(=O)(=O)n2nc(C)c(S(=O)(=O)N3CCCC(C)C3)c2C)cc1 (configuration not stated)	1	-1
O=C(NCc1ccccc1)NC1(C(=O)NCc2nnc3n2CCC3)CCCC1	8	6
CN(Cc1ccccc1)Cc1cc(C(=O)N(C)Cc2nccn2C)no1	-6	-14
CC1CC(=O)N(Cc2ccccc2)c2ccccc2N1C(=O)C1CC(=O)N(C2CC2)C1 (configuration not stated)	5	2
Oc1ccc(Br)cc1C=NN1CCN(Cc2cccc3ccccc23)CC1	-6	-9
COc1cc(NC(=O)C2(CC(=O)NC(C)(C)C)CCCC2)c(OC)cc1Cl	9	3
COCC(O)CN(C)c1ccc(C#N)cc1C(F)(F)F (configuration not stated)	-2	-1
Cc1ccccc1C1(O)CCN(C(=O)Cc2cc(=O)[nH][nH]c2=O)C1 (configuration not stated)	-1	-2
CNC(=O)c1cn(-c2ccccc2Cl)nc1-c1ccc(C)cc1	0	-2
CCCn1cc(C(=O)O)c2nn(-c3ccccc3)c(=O)c-2c1	-8	-9
O=C(NCc1ccco1)[C@@]1(OCc2cccc(C(F)(F)F)c2)CC(OCc2c(F)cccc2F)[C@H](O)[C@H](O)C1 (some centres not stated)	-3	-11
CN1CCN(c2ncnc3c2cnn3-c2ccc(Cl)cc2)CC1	-2	-2
Cc1ccc(-n2c(=O)c3ccccc3n(CC(=O)NCc3cccc(C(F)(F)F)c3)c2=O)cc1Cl	9	14
COC(=O)CN1C(=O)N(CCc2ccccc2)C2(CCN(C3CCOCC3)CC2)C1=O	20	2
O=C(c1cc(COc2ccc(F)cc2F)[nH]n1)N1C[C@H]2CCC[C@@]2(CO)C1	13	5
CC(=O)C1=C(O)C(=O)OC12C(=O)c1ccccc1C2=O	19	13
Cc1cc(Oc2ccccc2Cl)nc(SCc2ccccc2C)n1	-13	-13
COc1cccc(C(=O)CSc2nnc(-c3ccco3)n2C)c1	11	7
Cc1cc(C(=O)N2CCN(Cc3cccc(-c4noc(-c5cccnc5)n4)c3)CC2)cc(Cl)n1	-5	-12
COc1cc(OC)cc(C(=O)NCc2nnc(SCc3ccccc3C)n2-c2cc(Cl)ccc2Cl)c1	27	22
CCc1nc2n(n1)C(=O)C(C(c1ccc([N+](=O)[O-])cc1)N1CCN(C(C)=O)CC1)S2 (configuration not stated)	-2	-11

The list goes on.
SMILES	NPYLR7 agonist	NPYLR7 agonist max-min
O=C1NC2(CCN(C(=O)Cc3cccs3)CC2)Nc2ccc(Cl)cc21	1	9
CCOC(=O)C1CCN(C(=O)CCC(=O)N2CCN(c3ccccn3)CC2)CC1	-7	-13
CCN(CC(=O)Nc1c(F)cccc1F)Cc1cc2c(cc1Br)OCCO2	9	14
O=C(c1csc(CSc2nnc(-c3ccncc3)n2-c2cccc(C(F)(F)F)c2)n1)N1CCc2ccccc2C1	-6	-3
COC(=O)[C@@H](NC(=O)c1cccc(-c2n[nH]c(C)n2)c1)C(C)(C)C	5	1
CCCCNC(=O)c1ccc(-c2cccc(NC(C)=O)c2)o1	26	20
C=C(C)COc1cccc(C(=O)N2CCCC(C(=O)O)C2)c1 (configuration not stated)	-2	-5
CCN(CC(=O)Nc1cc(C(C)(C)C)nn1-c1ccc(F)cc1)S(=O)(=O)c1ccccc1	18	9
CCC(C)N(Cc1cc(Cl)ccc1OS(=O)(=O)c1ccc(NC(C)=O)cc1)C(=O)Nc1ccccc1OC (configuration not stated)	-4	-4
O=C1CCC(=O)N(c2ccc(C(=O)OCc3csc(Br)c3)cc2)N1	5	2
COc1ccc(C(=O)N[C@H](c2nnc3c(C(F)(F)F)cccn23)C(C)C)c(OC)c1	-4	-7
COc1ccc(-c2nn(CC(=O)NC3CCCC3)c(=O)c3nc(C)sc23)cc1	1	-2
CCCCCC(=O)N1CC(=O)N(Cc2ccc(OC)cc2)CC(O)C1 (configuration not stated)	2	3
CC(C)N1CCC(C)(C(=O)Nc2cccc3cccnc23)C1 (configuration not stated)	2	2
Cc1ccc2c(c1)C(=O)N(C(C)C(=O)Nc1ccn(-c3ccncc3)n1)C2=O (configuration not stated)	-1	-5
O=C(Cc1ccc2c(c1)OCO2)N1CCc2c(sc3[nH]c(=O)n(-c4ccc(F)cc4F)c(=O)c23)C1	3	3
COCCN(CC(=O)N(CCc1c[nH]c2ccccc12)Cc1ccc(N(C)C)cc1)C(=O)c1ccccc1OC	11	20
CCN(CCn1cccn1)C(=O)c1c(O)cccc1O	-4	-8
CCC(C)N(Cc1ccc(N(CC)CC)cc1OS(=O)(=O)CC)C(=O)c1cccs1 (configuration not stated)	6	12
Cc1cn2c3c(=O)n(Cc4ccc(Cl)cc4)c(=O)n(C)c3nc2n1CCCN(C)C	-4	-3
O=C(CSc1nnc(CN2CCCC2)o1)NC(=O)NCCC1=CCCCC1	13	16
Cc1cccc(NC(=O)C(C)Oc2ccc(-c3nnco3)cc2)c1 (configuration not stated)	14	10
O=C(CSc1nc2cc(Cl)ccc2s1)NC(=O)c1ccccc1	9	8
O=C(Nc1nncs1)N1CCCC(c2ccccc2)CC1 (configuration not stated)	0	-1
O=c1c(N=Nc2ccccc2[N+](=O)[O-])c(-c2ccc([N+](=O)[O-])cc2)[nH]n1-c1ccccc1	-5	-11

Other structures follow:
SMILES	NPYLR7 agonist	NPYLR7 agonist max-min
O=C(NC1CCCCNC1=O)c1cc2n(n1)CCN(Cc1ccc(Cl)c(Cl)c1)C2=O (configuration not stated)	8	27
N#Cc1ccccc1-c1ccccc1C(=O)Nc1cccc(C(F)(F)F)c1	-1	-5
Cc1noc2nc(C3CC3)cc(C(=O)NC(C)c3ccc(F)cc3)c12 (configuration not stated)	1	0
COc1ccc(NC(=O)N2CCN(C(C)c3ccccc3)CC2)c(C)c1 (configuration not stated)	7	14
O=C(c1cccs1)N1CCN(Cc2nc(-c3cccc(Cl)c3)no2)CC1	17	5
Cc1ccc(CC(=O)OCc2ccc3cn[nH]c3c2)s1	7	6
N#Cc1c(NC(=O)c2cc3nc(-c4ccccc4)cc(C(F)(F)F)n3n2)sc2c1CCCCC2	-15	-18
Cc1ccc(-n2ncc3c2CC(C)(C)CC3NC2CCOCC2)cc1 (configuration not stated)	-1	-6
CC(Cn1cncn1)NC(=O)N1CCCC(C)(C)CC1 (configuration not stated)	-5	-6
Cc1ccccc1-c1noc2ncc(C(=O)O)cc12	-4	-6
CC(NC(=O)CN1CCN(C)CC1C)c1ccccc1Cl (configuration not stated)	20	17
O=c1c2ccccc2nc(SCc2ccc([N+](=O)[O-])cc2)n1CC1CCCO1 (configuration not stated)	11	2
O=S(=O)(NCc1ccccc1)Nc1cccc(-c2cnc[nH]2)c1	5	2
C=c1oc(C)cc1=C1NN=C(CCC(=O)N2CCC(O)(c3ccc(Cl)cc3)CC2)O1	7&8	4&7
O=C(NCc1nnc(SCC(=O)N2CCc3ccccc32)n1-c1ccc(F)cc1)c1ccc(S(=O)(=O)N2CCCC2)cc1	-14	-4
CCn1c(CC2CCN(Cc3ccc(-n4cncn4)cc3)CC2)n[nH]c1=O	-5	-10
Cc1ccc([N+](=O)[O-])cc1NC(=O)c1c(-c2ccccc2)noc1C	-2	-2
Cn1c(-c2ccccc2)cc2c(Nc3cccc(NS(C)(=O)=O)c3)nccc21	-4	-5
O=C(c1ccc(-c2ccsc2)nc1)N1CCCN(c2ncccn2)CC1	9	3
CCC(CC)CC1(C(=O)Nc2ccccc2SC(=O)C(C)C)CCCCC1	-3	-7
CCn1c2ccccc2c2cc(CN3CCCC(N4CCC(CO)CC4)C3)ccc21 (configuration not stated)	16	4
COCCCNC(=O)C(C#N)=Cc1cc(OC)c(OC)cc1Br	3	0
CCCCC(O)CN(Cc1ccco1)Cc1c(-c2ccccc2)nn(C)c1Oc1cccc(OC)c1 (configuration not stated)	17	18
CCOc1ncccc1C(=O)N1CCCC(c2[nH]ncc2-c2ccccc2)C1 (configuration not stated)	-7	-10
CCOCCn1c(=O)c2c(nc3n(-c4cc(OC)ccc4OC)c(C)c(C)n23)n(C)c1=O	-1	3

A second format for part of the listing above.
smiles,NPYLR7 agonist,NPYLR7 agonist max-min
N#Cc1c(NC(=O)c2cc3nc(-c4ccccc4)cc(C(F)(F)F)n3n2)sc2c1CCCCC2,-15,-18
Cc1ccc(-n2ncc3c2CC(C)(C)CC3NC2CCOCC2)cc1 (configuration not stated),-1,-6
CC(Cn1cncn1)NC(=O)N1CCCC(C)(C)CC1 (configuration not stated),-5,-6
Cc1ccccc1-c1noc2ncc(C(=O)O)cc12,-4,-6
CC(NC(=O)CN1CCN(C)CC1C)c1ccccc1Cl (configuration not stated),20,17
O=c1c2ccccc2nc(SCc2ccc([N+](=O)[O-])cc2)n1CC1CCCO1 (configuration not stated),11,2

Further entries follow:
SMILES	NPYLR7 agonist	NPYLR7 agonist max-min
O=C(O)c1cscc1/C=C/c1ccsc1Cl	-2	-1
COc1ccc(Cl)cc1NC(=O)C1CCCN(c2ccc(-c3ccco3)nn2)C1 (configuration not stated)	-11	-14
O=C(CCCn1nc(-c2ccco2)ccc1=O)NCc1cccs1	4	5
OC(COCc1ccccc1)CN(Cc1cccc(Cl)c1)CC1CC(c2ccccc2F)=NO1 (configuration not stated)	-3	2
Cc1cccc2[nH]c(C3CCCN3Cc3ncc[nH]3)nc12 (configuration not stated)	10	8
COc1ccccc1C(C1Sc2nc(C)nn2C1=O)N1CCN(c2ccccc2)CC1 (configuration not stated)	2	1

Part of the list above, bar-delimited:
SMILES | NPYLR7 agonist | NPYLR7 agonist max-min
CCN(CC(=O)Nc1c(F)cccc1F)Cc1cc2c(cc1Br)OCCO2 | 9 | 14
O=C(c1csc(CSc2nnc(-c3ccncc3)n2-c2cccc(C(F)(F)F)c2)n1)N1CCc2ccccc2C1 | -6 | -3
